Screens from PubChem.
Ab BasE inh = inhibitors of Acinetobacter baumannii siderophore enzyme BasE; 0.1% of 84,000 active; inhibition, % (test concentration not listed); purified BasE, fluorescence polarization binding displacement;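 active = both replicates above 25% with normal brightness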;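 also: 0% = negative plate control signal and 100% = positive plate control signal; stock transfer was 100 nL into about 30 µL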
LANA-nucl inh = inhibitors of KSHV LANA binding to nucleosomes; FITC-LANA1-23 / chicken nucleosome fluorescence polarization; stronger effect = lower value; z-score (concentration not given with the values); 0.3% of 51,000 active;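 active = both repeat wells score below -2 in polarization z-score versus plate sample wells, excluding overly bright wells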;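 also: 100 nL library stock added to about 30 µL; numbers are from one replicate; some results filed as inactive read as strong as hits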
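Material: Purified chicken nucleosomes with FITC-labelled LANA N-terminal peptide (1-23) | Reagent: 50 nM FITC-LANA1-23 probe | Medium: TEN-BT buffer, pH 7.5 | Times: 10–45 min incubation at room temperature | Detection: Fluorescence polarization | Replication: Duplicates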
* hit, by the source's call; . = no result given; & = joins results of further samples.

Values run as follows: LANA-nucl inh	Ab BasE inh
CSc1nnc(C2CCCN2C(=O)N(c2ccccc2)c2ccccc2)n1C (configuration not stated)
    -0.22	1.9
CC(C)NC(=S)N/N=C/c1ccc2c(c1)OCCO2
    .	0.7
O=C1/C(=C\c2ccco2)SC(=S)N1Cc1ccccc1
    -0.4	-0.8
CN1[C@@H]2CC(OC(=O)[C@H](CO)c3ccccc3)C[C@H]1[C@@H]1O[C@@H]12 (some centres not stated)
    -0.3&0.29	.
Cc1cc2c(=O)n(Cc3ccco3)c(SCC(=O)N3CCc4ccccc4C3)nc2s1
    -0.92	-1.6
CC[C@@H](C(=O)[C@@H](C)[C@@H](O)[C@H](C)[C@@H]1O[C@@H]([C@@H](CC)C(=O)O)CC[C@@H]1C)[C@H]1OC2(C=C[C@@H](O)[C@]3(CC[C@@](C)([C@H]4CC[C@](O)(CC)[C@H](C)O4)O3)O2)[C@H](C)C[C@@H]1C (some centres not stated)
    0.29	0.2
CC(c1nnc(SCC(=O)Nc2sccc2C#N)n1-c1ccc(Cl)cc1)N(C)C (configuration not stated)
    .	-1.4
Cc1cc(N)n2ncc(-c3ccccc3)c2n1
    -1	5.7
CCOC(=O)c1c(C2CC2)csc1NC(=O)Cn1c(SC(C)C)nc2ccccc21
    .	-2.4
Cc1cc(=O)oc2n[nH]c(CSc3ccc(Cl)cc3)c12
    .	2.7
Cc1cc(C)c2c(c1)/C(=N\N=c1\sc3ccccc3n1C)C(=O)N2
    .	2.0
O=c1c(/C=N\O)coc2ccc(F)cc12
    2.5	.
CCc1ccc(/C=C2/C(=O)N(C3CCCCC3)C(=S)N2C)cc1
    .	5.3
NC(=O)C1CCN(C2CC(=O)N(Cc3ccc4c(c3)OCO4)C2=O)CC1 (configuration not stated)
    .	-2.7
CC(C)(C)C(=O)CC1(O)C(=O)N(Cc2ccccc2)c2ccccc21 (configuration not stated)
    -0.025	3.7
COc1cc(S(=O)(=O)Nc2ccc(NC(C)=O)cc2)ccc1F
    -0.73	-1.3
Cc1ccc(N2C(=O)/C(=C\c3ccc4c(c3)OCO4)N=C2SCC#N)cc1
    .	-6.2
O=C(CN1C(=O)c2ccccc2S1(=O)=O)N1CCCC1c1ccc2c(c1)OCCCO2 (configuration not stated)
    .	0.5
O=C(NC1CC1)/C(=C/c1ccc[nH]1)NC(=O)c1ccccc1
    2.4	2.0
Cc1cc(Cl)ccc1NS(=O)(=O)c1ccc2c(c1)[C@H]1C=CC[C@H]1[C@@H](c1ccccc1)N2
    .	1.8

3 entries from above, ordered by the value under LANA-nucl inh, smallest number first:
SMILES	LANA-nucl inh
CSc1nnc(C2CCCN2C(=O)N(c2ccccc2)c2ccccc2)n1C (configuration not stated)	-0.22
CC[C@@H](C(=O)[C@@H](C)[C@@H](O)[C@H](C)[C@@H]1O[C@@H]([C@@H](CC)C(=O)O)CC[C@@H]1C)[C@H]1OC2(C=C[C@@H](O)[C@]3(CC[C@@](C)([C@H]4CC[C@](O)(CC)[C@H](C)O4)O3)O2)[C@H](C)C[C@@H]1C (some centres not stated)	0.29
O=c1c(/C=N\O)coc2ccc(F)cc12	2.5

Additional records:
Values run as follows: LANA-nucl inh	Ab BasE inh
Cc1ccc(C(=O)CSc2ncn[nH]2)cc1
    -0.45	4.4
O=C(NCN1CCN(c2ccccn2)CC1)c1cnccn1
    .	2.2
O=C(CCN1C(=O)/C(=C\c2cccs2)SC1=S)NC1=NCCS1
    0.004	-2.2
COc1ccc(C(=O)CSc2nnc(-c3cc4cc(Cl)ccc4o3)n2C)cc1
    2.1	-3.5
O=C(OC1CCOC1=O)c1ccc(S(=O)(=O)N2CCCc3ccccc32)cc1 (configuration not stated)
    .	1.5
Cc1ccc(NC(=O)c2cc3c(=O)n(Cc4ccco4)ccc3nc2C)cc1
    -0.43	-2.5
O=C(CSCC(=O)N1CCCC1)Nc1nc(-c2cccs2)cs1
    0.0055	-0.3
COc1ccc(OC)c(NC(=O)c2oc3c(c2C)C(O)CC(C)(C)C3)c1 (configuration not stated)
    -0.59	1.6
N#Cc1ccc(NC(=S)NC(=O)C2CC2)cc1
    .	-3.8
CC(=O)Nc1ccc(S(=O)(=O)N2C(=O)c3cccc4cccc2c34)cc1
    .	4.7
Cc1nnsc1C(=O)N/N=C/c1ccncc1
    -0.55	2.7
C=CCC1Cc2ccccc2C(CC=C)N1 (configuration not stated)
    -2	0.6
ON=C1c2ccccc2-c2ccccc21
    -0.38	3.3
O=C1CSC(N2CCOCC2)=N1
    .	2.4
O=c1[nH]c2ccccc2nc1N1CCOCC1
    .	0.1
Cc1cc(C)n2nc(SCC(=O)N(C)Cc3ccccc3)nc2n1
    .	-1.6
Cc1cc(S(=O)(=O)N2CCOCC2)ccc1OCC(=O)O
    -0.96	0.2
CC(=O)Nc1ccc(Br)cc1
    .	-0.5
Nc1nc2ccccc2n1C(=O)c1ccccc1
    -0.27	0.4
Cc1ccc(-c2nc3ncccc3o2)cc1NC(=O)/C=C/c1ccc(Cl)cc1
    -1.2	2.2
COc1c(C(=O)O/N=C(\N)c2cccs2)csc1Cl
    0.18	1.4
COc1ccc(N=Cc2sc3ccccc3c2O)cc1
    .	7.1
NC(=O)C1CCN(c2nc(C3CC3)nc3c2nnn3Cc2ccccc2Cl)CC1
    2.3	-0.1
COC(=O)c1ccc2c(=O)n3nc(NCC4CCCO4)sc3nc2c1 (configuration not stated)
    -0.4	-0.9
Cc1ccc(N(C)C(=O)n2nc(C)cc2C)cc1
    0.55	-0.3
Cc1ccc(-n2nc(C(=O)N3CCCC(C)C3)c3c4ccccc4n(C)c3c2=O)cc1 (configuration not stated)
    -0.27	-1.4
Cc1cc2occ(CC(N)=O)c2cc1Cl
    -0.93	-0.8
COc1c[nH]n(-c2ccccc2)c(=O)c1=O
    -0.16	1.5
C=CCn1c(SCC2=C(C(=O)OCC)C(C)NC(=O)N2)nnc1-c1ccoc1C (configuration not stated)
    .	1.4
Cc1occc1C(=O)C(C#N)=C(NCc1cccnc1)NCc1cccnc1
    .	1.2
Cc1ccc2nc(-c3cccc(NC(=O)C4CCCO4)c3)oc2c1 (configuration not stated)
    3.1	-2.8
CCc1ccc(/C=C2\SC(=O)N(CC(=O)N3CCOCC3)C2=O)cc1
    0.8	-1.4
Cc1cc(=O)n2nc(N)sc2n1
    -0.77	0.6
CCOC(=O)C1CCN(c2cc(C(F)(F)F)nc3ccc(Br)cc23)CC1
    1.1	-1.9
CSc1nnc(-c2ccccc2)o1
    -0.89	0.1
CC1=CC(=NC(=O)c2ccco2)C(C)=CC1=O
    .	1.5
Cc1nnc(NC(=O)c2ccc3c(c2)C(=O)N(C2CCCCC2)C3=O)s1
    2.5	-1.8
COc1ccc2c(C)cc3nnc(SCC(=O)N(C)Cc4ccco4)n3c2c1
    .	1.0
COC(=O)CCC(=O)Nc1ccccc1C(N)=O
    0.024	2.3
O=c1n(-c2ccccc2)c(=O)n2n1CC(O)C2
    0.63	1.9
N/C(=N\OC(=O)C12CC3CC(CC(C3)C1)C2)c1cccnc1
    0.064	1.9
O=C(NCCCN=C1NS(=O)(=O)c2ccccc21)c1ccncc1
    0.83	-1.3
CCN1CCN(c2ccc(NC(=O)c3cccc(Cl)c3Cl)cc2)CC1
    0.54	0.1
COc1ccc(CCC(=O)N(C)C)cc1
    -1.1	-0.1
COc1cc(OC)c(C2=NOC(C(=O)Nc3cc(C)n(CC(=O)NCc4ccco4)n3)C2)cc1Cl (configuration not stated)
    -0.56	-0.8
CC1CCN(C(=O)CC(C(=O)N2CCc3ccccc32)n2ccnc2)CC1 (configuration not stated)
    0.15	-1.1
COC(C(=O)O)c1ccccc1 (configuration not stated)
    2	.
Cc1cccc(N/C(N)=N/c2nc(C(F)(F)F)cc(=O)[nH]2)c1
    0.47	2.6
CCCc1c(C)nc(SCC(C)C)[nH]c1=O
    0.58	-0.5
C=CCNS(=O)(=O)/C=C/c1ccccc1
    .	-1.1
COC(=O)Cn1cc(C2C(C#N)=C(N)OC3=C2C(=O)CC(C)(C)C3)c2ccccc21 (configuration not stated)
    -0.68	-0.1
O=C(COCc1cc(-c2ccco2)on1)NCC1CCCO1 (configuration not stated)
    0.79	-1.7
COC(=O)C1=C(C)N(Cc2ccccc2)C(=O)/C1=C\c1cccc(Cl)c1
    .	0.0
Nc1nc2c(c(=O)[nH]1)N(C=O)C(CNc1ccc(C(=O)N[C@@H](CCC(=O)O)C(=O)O)cc1)CN2 (some centres not stated)
    -0.2&0.67&-0.22	-0.4&-0.3
Cc1ccc(NC(=O)CNCC(C)(C)N2CCOCC2)c(Cl)c1
    .	-0.7
O=C(Nc1nncs1)c1ccc(F)cc1
    -0.41	0.4
ON=C1CCCCC1
    .	1.2
CC(C)C(=O)Nc1cccc(S(=O)(=O)c2cccc(NC(=O)C(C)C)c2)c1
    0.13	-2.1
O=C(O)C1(c2ccc3c(c2)OCCO3)CCCC1
    1.5	-0.4
CCNC(=S)NC1CC2CCC1C2 (configuration not stated)
    -0.9	1.5

New compounds follow
Values run as follows: LANA-nucl inh	Ab BasE inh
Cc1cccc(OCC(=O)Nc2ccccc2N2CCCCC2)c1
    2.2	-1.1
COc1ccc(CCNc2ncc3c(n2)c(=O)c(C#N)c2[nH]c4ccccc4c(=O)n23)cc1OC
    .	-0.2
O=C(OCc1nc2ccccc2c2ccccc12)C1=COCCO1
    .	-3.5
CC(C)[C@H](NC(=O)c1ccccc1)C(=O)OCn1nnc2ccccc2c1=O
    .	0.8
COc1ccc(NC(=S)N(C(C)C)C2CCN(C(C)C)CC2)cc1
    -0.53	2.0
O=C1C(=Nc2cccnc2)c2ccccc2N1Cc1ccccc1
    .	-0.4
CN1C(=O)/C(=C(/C#N)C(=O)N2CCCC2)c2ccccc21
    .	1.5
CCOc1cc2[nH]c(=O)n(CCc3ccc(OC)c(OC)c3)c(=O)c2cc1OCC
    -0.79	-1.2
CCc1ccccc1NC(=O)CCS(=O)(=O)c1ccc2c(c1)CCCN2C(C)=O
    -0.32	0.9
Cc1cccc(N2C(=O)CN(Cc3cccs3)C2=S)c1
    0.62	-0.2
O=c1c(-c2ccccc2)coc2c(CN3CCCCCC3)c(O)ccc12
    -0.6	0.8
CCN(CC)c1ccc(C=NCCc2ccccc2)c(O)c1
    .	-1.5
Cc1nn(-c2ccccc2Cl)c2[nH]c(=O)cc(C(F)(F)F)c12
    0.81	-0.8
CCOc1ccccc1NC(=O)C1SC(=Nc2ccccc2OC)C(C(N)=O)=C1N (configuration not stated)
    .	1.1
COc1ccc(OC)c(C2=NOC(C(=O)NC(C)(C)C)C2)c1 (configuration not stated)
    -1.2	-1.6
FC(F)n1nnn(-c2ccccc2)c1=S
    .	-1.2
COC(=O)CNc1cccc(C(F)(F)F)c1
    -0.12	-2.1
Cn1c(=O)c(=O)[nH]c2c(=O)oc3ccccc3c21
    -0.31	1.8
NC(=O)NC(=O)Cn1ncc(Cl)c(Cl)c1=O
    .	-0.1
CC1CCC(Nc2ccc(S(=O)(=O)N3CCOCC3)cn2)CC1 (configuration not stated)
    .	3.8
CC(=O)N1c2ccc(S(=O)(=O)N(C)CC(=O)N3CCN(C4CCCCC4)CC3)cc2CC1C (configuration not stated)
    -0.9	0.5
CC(=O)NC1C(Oc2ccccc2)OC2COC(c3ccccc3)OC2C1O (configuration not stated)
    .	-3.1
Cc1nc(COC(=O)c2ccc3c(c2)S(=O)(=O)c2ccccc2C3=O)cs1
    .	2.3
COc1cc2c(C)nc(C)c(C#N)c2cc1OC
    0.87	2.9
O=C(/C=C1/Nc2ccccc2NC1=O)Nc1cccc(C(F)(F)F)c1
    -0.15	-0.4
O=C(Nc1sc2c(c1C(=O)NCc1cccnc1)CCC2)c1cccs1
    -0.71	1.9
COc1ccc(CCNc2ncnc3sc4c(c23)CCCC4)cc1
    .	2.1
Cc1nn(S(=O)c2ccc3ccccc3c2)c(C)c1Sc1ccc(Cl)cc1 (configuration not stated)
    .	3.4
Cc1ccc(C)c(C(=O)OCC(=O)NC2CC2)c1
    .	0.4
Cc1ccc(N2C(=O)N(Cc3cc(=O)oc4cc(C)ccc34)C(=O)C2C)cc1 (configuration not stated)
    .	-0.3
O=C1SC(SCc2ccccc2)=N/C1=C\c1ccco1
    0.045	2.5
COC(=O)CSc1nnnn1-c1ccc(C(=O)OC)cc1
    .	1.7
C/C(CCc1ccc2c(c1)OCO2)=N\NC(=O)c1ccccc1
    .	0.1
CNC(=O)COc1c(C)c(C)cc(C)c1C
    0.24	-1.0
Cc1ccc(SC(C)C(=O)Nc2ccc(N(C)C)cc2)cc1 (configuration not stated)
    0.17	6.5
CC(=O)N1CCc2cc(N=Nc3c(N)[nH]n(-c4ccccc4)c3=O)ccc21
    .	4.1
CCOC(=O)c1cc(-c2ccccc2)no1
    -1.3	1.7
CSc1ncc(Br)c(C(=O)O)n1
    .	0.8
Cc1cccc(N2CCN(C(=O)NC3CCCCC3)CC2C)c1 (configuration not stated)
    0.061	2.7
O=C(c1cc(=O)[nH]c2ccccc12)N1CCN(Cc2ccc3c(c2)OCO3)CC1
    .	1.2
COc1ccc(-n2cnc3cc(NS(=O)(=O)c4ccccc4)ccc32)cc1
    0.13	-3.4
CCN1CCN(C(C)C(=O)Nc2ncc(C)s2)CC1 (configuration not stated)
    0.05	1.6
CCCC1=NN(c2cccc(C(=O)O)c2)C(=O)C1
    0.069	3.8
Cc1ccc(-c2csc(-c3nnn(-c4cccc(Cl)c4)c3N)n2)cc1
    1.9	-3.5
OCc1nc2ccc(-c3ccc4nc(CO)[nH]c4c3)cc2[nH]1
    0.26	-2.0
CCN(CC)CCOc1cc(C)cc(C)c1
    -1.6	-0.6
CC(C)c1ccc(C2C3CCc4ccccc4C3=NN2CCO)cc1 (configuration not stated)
    .	1.6

Some of the compounds tested, so the mix of outcomes need not match the whole.
